Bead autofluor: compound fluorescence in toxin protease inhibitor counterscreen; AID 624483; 3.1% of 360,000 active; compound autofluorescence counterscreen, microsphere flow cytometry; active compounds read high; fluorescence intensity (no concentration beside the values);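 active means at least 3 SD above the mean of all compounds, about 16000 in these data; inconclusive means too few beads counted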;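 further: 100 nL of 1 mM stock went into each well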
BJeLR lethal: kills HRASV12-expressing BJeLR cells. BJeLR (HRASV12) viability, CellTiter-Glo ATP luminescence, 48 h; reference of the scale not given here. inhibition, % (no concentration beside the values). AID 1554. 0.17% of 300,000 active;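 active means replicate mean above 50%; inconclusive means above 50% but judged a plate artefact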;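 further: 50 nL library stock added to about 25 µL; numbers are from one replicate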
Sa RN4220 lethal: S. aureus RN4220 growth inhibition. inhibition, % (test concentration not listed). AID 1259311. OD600, 16 h. 0.33% of 330,000 active;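 active means z-score of -3 or lower and OD600 up to 0.18 on both plates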;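 further: plate controls were untreated cells for no effect and reference antibiotic for full effect; stock transfer was 100 nL into about 80 µL; one replicate is shown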
PrP 5UTR inh: suppresses PrP 5' UTR mRNA reporter expression. cell-based PrP 5' UTR mRNA reporter, plate reader. inhibition, % (no concentration beside the values). 0.35% of 340,000 active. AID 488862;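 active means every replicate at 50% or more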;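 further: 0 = median of the neutral control wells; tested in H4 reporter cells; numbers are from one replicate; inactives centre near -14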
Mtb hypoxia rep: reduces hypoxia-regulated biosensor signal in M. tuberculosis. M. tuberculosis hypoxia-regulated fluorescent reporter, fluorescence. fluorescence inhibition, % (no concentration beside the values). 0.1% of 300,000 active. AID 1159583;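 active means 35 to 45% if threefold the growth effect, above 45% if 1.5-fold the growth effect; inactive means the rest, general growth blockers included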;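 further: wells of about 50 µL received 100 nL stock; 0% = vehicle wells and 100% = reference inhibitor wells; whole bacteria with a GFP reporter of the hypoxia response; strong numbers were not always called active; many hits fall short of the cut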
Sa ugtP lethal: growth inhibition of S. aureus ugtP deletion strain; 0.54% of 330,000 active; AID 1259309; S. aureus RN4220 ugtP deletion, OD600 growth, 16 h; some inactives read as strong as hits; growth inhibition, % (no concentration beside the values);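 active means z-score under -3 and OD600 up to 0.15 on both plates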;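 further: plate controls were untreated wells for no effect and antibiotic for full effect; wells of about 80 µL received 100 nL stock; the first replicate is given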
Mtb hypoxia rep growth: recorded beside Mtb hypoxia rep, whose call it bears; growth inhibition, %; measured here: M. tuberculosis growth (absorbance);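 0% = vehicle and 100% = reference antibiotic; read after six days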
* hit, by the source's call; ? = inconclusive; . = not tested or not shown; & = joins results of further samples. The order is random. Share with any hit: about 4%.

SMILES	Bead autofluor	BJeLR lethal	Sa RN4220 lethal	PrP 5UTR inh	Mtb hypoxia rep	Mtb hypoxia rep growth	Sa ugtP lethal
Clc1ccc(Cn2cc(/C=N/n3cnnc3)c3ccccc32)cc1	5488	1	.	-17	.	.	.
CC(NC(=S)Nc1ccc(OC(F)F)cc1)c1ccc(F)cc1 (stereo not drawn)	4514	3	-2.2	3	4	9	0
Cc1nnc(SCC(=O)Nc2sc3c(c2C#N)CCCC3)[nH]c1=O	4335	2	-1.0	-4	.	.	9
CN(C)Cc1ccccc1Sc1ccc(O)cc1O	2003	11	5.1	-18	17	14	15
CCOC(=O)c1cnc2c(OC)cccc2c1Oc1ccccc1	3958	0	1.3	-52	11	6	-7
CC12CC[C@H]3[C@@H](CCC4(O)C[C@H](O)CCC34/C=N/NC(=O)c3ccccc3[N+](=O)[O-])C1(O)CCC2C1=CC(=O)OC1 (stereo partly drawn)	3738	8	.	-8	.	.	.
O=C(CN1CCOCC1)c1ccc2cc[nH]c2c1	5851	-7	6.8	-15	0	8	5
CC(C)c1ccc(NC(=S)N2CCN(S(=O)(=O)c3ccccc3)CC2)cc1	5997	-10	-3.5	-14	1	7	6
Cc1ccc(C)c(C(C)NC(=O)CC#N)c1 (stereo not drawn)	2468	0	-5.3	-2	-2	6	-9
S=C1NC2=C(CCC/C2=C\c2ccccc2)C(c2ccccc2)N1 (stereo not drawn)	2461	9	-0.6	-26	-10	0	8
CCCCN(C)CCNC(=O)CN1C(=O)CSc2ccc(S(=O)(=O)N3CCCC3)cc21	4305	6	3.4	-5	6	0	5
COc1cc(NC(=O)C2CCCN(S(=O)(=O)c3cccc4cccnc34)C2)cc(OC)c1OC (stereo not drawn)	.	.	5.0	.	5	11	-1
O=C(NNc1nc(=O)c2cccnc2s1)c1ccccc1O	4199	15	7.7	-27	1	2	1
CCCc1cc2c(=O)c(-c3nc4ccccc4s3)c(COCC(=O)O)oc2cc1O	5460	.	7.0	-57	16	6	2
CC1CN(C(=O)Nc2ccccc2)c2ccccc2-[n+]2ccsc21 (stereo not drawn)	2605	0	6.8	-9	-8	-4	3
COc1ccc(N2C(=O)CC(N3CCCC4CCCCC43)C2=O)cc1 (stereo not drawn)	2497	3	7.1	6	5	3	1
Cc1cc(C)c2c(NC(=S)NC(=O)c3ccccc3)nn(C)c2n1	4701	-5	1.5	-21	3	6	6
COc1cccc(-c2nc(CS(=O)(=O)CC(=O)NCCCN3CCc4ccccc4C3)c(C)o2)c1	9583	3	1.2	-10	8	9	3
O=C(Nc1ncccc1Cl)c1ccc2c(c1)OCCO2	4003	7	7.9	-59	10	2	5
c1ccc(C2=Nn3c(nnc3-c3ccncc3)SC2)cc1	2683	5	.	-49	.	.	.
COc1ccccc1/C=N/NC(=O)c1csc(C)c1C	10612	0	.	-30	.	.	.
O=C(CCn1nnc2ccccc2c1=O)N[C@@H](Cc1ccccc1)C(=O)O	10204	2	8.1	-27	5	5	-8
Cc1cc(C)cc(C(=O)NC(CC(N)=O)c2ccc(NC3CCCCC3)c([N+](=O)[O-])c2)c1 (stereo not drawn)	2837	-4	4.7	-9	4	7	-1
C=CCn1c(C)cc(C(=O)COC(=O)C2CC(=O)N(Cc3ccccc3)C2)c1C (stereo not drawn)	4358	0	4.5	-11	7	7	0
CCCCn1c(N)c(N(Cc2ccccc2OC)C(=O)C(C)Oc2ccc(F)cc2)c(=O)[nH]c1=O (stereo not drawn)	?	0	2.4	-24	1	1	1
COc1ccc(C2/C(=C(/O)c3ccc(C)cc3)C(=O)C(=O)N2CC2CCCO2)cc1OC (stereo not drawn)	2007	5	3.4	-19	16	0	7
Cc1ccc2c(c1)NC(=O)C(CC(=O)NCCCN1CCCC1=O)O2 (stereo not drawn)	6264	-3	5.2	-33	.	.	4
COc1ccc(/C=C/C(=O)c2ccc[nH]2)c(OC)c1OC	4382	-6	9.9	-37	0	12	4
COCc1nc(-c2ccc(-c3ccccc3)nc2OC)no1	9622	-2	11	-84	10	10	0
COc1ccc(C(=O)c2coc3c2C(=O)C(=O)c2ccccc2-3)cc1	3617	4	25	-24	11	11	6
CCCOc1ccc(C(=O)NCCC(=O)NCCCC(=O)O)cc1	3161	-15	0.8	-22	-7	2	0
CC(=O)Nc1ccc(NC(=O)CSc2nccn2Cc2ccco2)cc1	6093	2	-0.1	-18	10	-19	2
COC(=O)c1nn(-c2ccccc2)c(Sc2ccc(C)cc2)c1C=NO	.	.	5.9	.	8	5	-6
Cc1noc(C)c1S(=O)(=O)N(C)CC1Oc2ccc(NC(=O)Cc3ccccc3)cc2C(=O)N(C(C)CO)CC1C (stereo not drawn)	.	.	2.1	.	3	8	2
COc1ccc(CN(C)S(=O)(=O)c2nnc(NC(=O)c3cccc(F)c3)s2)cc1	6122	-7	44	-10	6	-1	39
CCOC(=O)/C(C#N)=C/c1c(Oc2cccc(C)c2)nc2c(C)cccn2c1=O	2068	-16	-1.5	-28	0	-5	2
COCCCNC1CS(=O)(=O)CC1O (stereo not drawn)	3178	-11	1.7	-11	9	-5	4
Cc1ccc(-c2c3c(=O)n(C)c(=O)n(C)c3cn2Cc2ccccn2)cc1	2272	-1	0.7	-8	-2	10	-3
CCOc1nc(NCCc2ccc(OC)c(OC)c2)nc(N2CCN(c3ccc(OC)cc3)CC2)n1	23445*	-2	5.1	-5	7	8	-7
Cc1ccc(OCC(=O)Nc2ccc(N3CCN(C(=O)c4ccco4)CC3)cc2)c(C)c1	5465	-5	-5.5	-17	-3	-1	-12
Cc1ccc(C(=O)NCC(=O)OCC(=O)Nc2ccc(Cl)cn2)cc1	3956	.	4.2	-8	15	-10	3
COc1ccc(NC(=O)c2ccc(S(=O)(=O)C(F)F)cc2)c(OC)c1	3348	-1	4.8	-9	6	6	3
Cc1ccc(NC(=O)Nc2cccnc2)cc1Cl	3209	-3	-6.1	-43	6	6	-6
CCN(c1ccccc1)S(=O)(=O)c1ccc(NC(=S)NC(=O)c2cccs2)cc1	2906	-4	14	-13	4	10	15
C=CCNC(=O)c1cc(-c2ccccc2O)on1	6318	-4	27	-18	-2	-5	23
Cc1cccc(N(CC(N)=O)S(C)(=O)=O)c1C	8086	-5	3.3	-14	11	13	4
CC(=O)C(Cc1ccccc1)(Cc1ccccc1)C(C)=O	4139	1	2.9	-16	14	5	4
c1cc(CNc2ccc3c(c2)OCCO3)ccn1	4441	3	1.7	3	.	.	2

Structures shown so far that contain a thiophene ring, fused or not:
SMILES	Bead autofluor	BJeLR lethal	Sa RN4220 lethal	PrP 5UTR inh	Mtb hypoxia rep	Mtb hypoxia rep growth	Sa ugtP lethal
Cc1nnc(SCC(=O)Nc2sc3c(c2C#N)CCCC3)[nH]c1=O	4335	2	-1.0	-4	.	.	9
COc1ccccc1/C=N/NC(=O)c1csc(C)c1C	10612	0	.	-30	.	.	.
CCN(c1ccccc1)S(=O)(=O)c1ccc(NC(=S)NC(=O)c2cccs2)cc1	2906	-4	14	-13	4	10	15

The list continues:
SMILES	Bead autofluor	BJeLR lethal	Sa RN4220 lethal	PrP 5UTR inh	Mtb hypoxia rep	Mtb hypoxia rep growth	Sa ugtP lethal
CN(C)/C=N/NC(=O)c1ccccc1Cl	4262	5	.	-31	.	.	.
Cc1nc(NC(=O)c2ccncc2)sc1C(=O)N(C)C	?	-11	3.3	-2	8	-2	11
CS(=O)(=O)N1CCN(c2ccccc2NC(=O)c2ccc3ccccc3c2)CC1	2959	-14	5.7	-63	2	15	-4
O=C(NCc1ccccn1)C1CCN(Cc2cnn(-c3ccccc3)c2-n2cccc2)CC1	22540*	-4	1.4	-11	-13	5	-1
CC1C[N+](=C2C=C(N3CCOCC3)CC(C)(C)C2)CC(C)O1 (stereo not drawn)	3546	6	2.8	-5	9	11	3
COc1cccc(NC(=O)CN(C)C(=O)c2ccc(-n3cncn3)c([N+](=O)[O-])c2)c1	3059	.	2.4	-22	5	-3	10
CC1CCc2c(sc(NC(=O)CN3CCN(C(=O)c4ccco4)CC3)c2C#N)C1 (stereo not drawn)	4376	2	8.4	-19	0	4	2
Cc1ccc(C)c(S(=O)(=O)NC(C)C(=O)Nc2ccc(-c3nc4ccccc4s3)cc2)c1 (stereo not drawn)	2588	5	1.1	-70	.	.	3
COc1ccc(-c2cc(=O)oc3cc(OC(C)C(=O)O)ccc23)cc1 (stereo not drawn)	5932	-4	4.9	-17	1	8	1
O=C(c1ccco1)N1CCN(c2cc(C(F)(F)F)nc3ncnn23)CC1	11111	0	-1.0	-16	0	13	-3
CCCc1nnc(NC(=O)CCCC(=O)O)s1	2418	-2	5.8	3	3	0	2
O=C(O)C(O)Cc1c[nH]c2ccccc12 (stereo not drawn)	6012	.	4.1	-27	.	.	12
CCC(=O)C(C#N)(c1ccc(OC)c(OC)c1)C(C)C (stereo not drawn)	3144	.	12	-14	2	1	-2
COC(=O)/C=C1\N/C(=N\c2nc(C)cc(C)n2)N(c2ccc(C)cc2)C1=O	2592	6	0.2	-3	7	0	8
CC1(C)Cc2[nH]c3ccccc3c2C(C)(C)N1	3508	7	1.2	-9	-4	7	-5
COc1ccccc1CNC(=O)CCNC(=O)C1CCN(S(=O)(=O)c2ccccc2)CC1	5674	6	3.3	-23	-1	0	8
CCN(CC)c1ccc(C(=O)OCC(=O)NCC2CCCO2)cc1 (stereo not drawn)	8618	0	2.5	-21	9	5	0
CCCc1nc2c(s1)CCc1onc(-c3cccc([N+](=O)[O-])c3)c1-2	2810	2	11	-19	7	10	14
COc1cccc(SCc2noc(C(=O)NCC3CC3)c2C(=O)NCC2CC2)c1	3122	15	10	-23	22	11	1
CCOc1ccc(C(=O)NCc2ccco2)cc1Cl	3729	8	0.1	-11	7	19	4
Cc1ccc(N(CC(=O)NCc2ccco2)C(=O)CNS(=O)(=O)c2ccccc2)c(C)c1	3947	-6	-0.7	-31	14	-1	-4
Cc1ccnc(SCCn2c(N3CCN(Cc4ccccc4)CC3)nc3c2c(=O)[nH]c(=O)n3C)n1	5978	-2	-13	-32	14	9	-3
O=C(Nc1cccc(S(=O)(=O)c2cccc(NC(=O)C3CC3)c2)c1)C1CC1	8438	-1	6.3	-2	1	0	2
Cc1ccc(-n2c(=O)cc(N3CCN(Cc4ccccc4)CC3)[nH]c2=O)cc1	6015	0	3.2	-15	8	10	3
Cc1cc(C)nc(NC(=O)c2ccc(Cl)c([N+](=O)[O-])c2)n1	5260	9	-1.0	-11	-1	-12	5
Cc1oc2c(O)c(O)ccc2c(=O)c1-c1ccccc1	4460	3	4.9	-11&-47	10	4	-6
Cc1ccc(OCC(=O)NNC(=S)NC(=O)c2ccc(Br)o2)c(C)c1	4919	-1	71	-11	4	0	56
COc1nc(OCC#N)nc(N2CCCCC2)n1	4275	3	7.1	-17	5	8	2
COc1ccc2c(c1OC)c(=O)n1c3ccc(OC(C)C(=O)NCCCN4CCOCC4)cc3c3ccnc2c31 (stereo not drawn)	5739	-1	2.5	54*	.	.	7
CCOC(=O)c1c(C)[nH]c(C(=O)COC(=O)C2=NNC(=O)CC2)c1C	2270	-2	2.4	-25	6	2	6
CCOc1ccc(C(Nc2ccc(C)cc2)P2(=O)OCCCO2)cc1 (stereo not drawn)	2870	-4	3.5	-14	9	7	-2
O=C(N1CCCC1)C(F)(F)Oc1ccc(F)cc1	4562	-1	-0.5	-32	15	22	3
O=C(NC1C(=O)NNC1c1ccccc1)c1ccc(F)cc1 (stereo not drawn)	.	12	2.8	-10	15	7	9
CC(C)(C)N=C1NN=C(c2cc3ccccc3o2)CS1	8229	-10	-0.4	-82	8	7	-4
Cc1ccc(NC(=S)NC(=O)C2CCCC2)cc1C	5671	8	-2.0	-66	14	21	44
CCc1n[nH]c(=O)n1Cn1c(CC)n[nH]c1=O	2949	0	1.4	-10	.	.	7

Part of the list above, with bars between the fields:
canonical_smiles | Bead autofluor | BJeLR lethal | Sa RN4220 lethal | PrP 5UTR inh | Mtb hypoxia rep | Mtb hypoxia rep growth | Sa ugtP lethal
Cc1cc(C)nc(NC(=O)c2ccc(Cl)c([N+](=O)[O-])c2)n1 | 5260 | 9 | -1.0 | -11 | -1 | -12 | 5
Cc1oc2c(O)c(O)ccc2c(=O)c1-c1ccccc1 | 4460 | 3 | 4.9 | -11&-47 | 10 | 4 | -6
Cc1ccc(OCC(=O)NNC(=S)NC(=O)c2ccc(Br)o2)c(C)c1 | 4919 | -1 | 71 | -11 | 4 | 0 | 56

Screening results deposited in PubChem BioAssay by several laboratories.
